Compound activity deposited in PubChem BioAssay by National Center for Advancing Translational Sciences (NCATS).
Cruzain Triton: blocks cruzain activity in presence of Triton detergent; P25779; purified cruzain, Z-FR-AMC fluorescence, 0.01% Triton; Potency, µM, for inactives: max response, negative = inhibition, actives largely listed as inhibitors; 200,000 tested, 0.43% active; AID 1478; active = well fitted curve in the direction sought with a large enough effect; inconclusive = small, poorly fitted or top-dose-only effect, or another doubt; inactive = no such curve, though single readings can be large; an effect the other way counts as inactive or inconclusive;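 note: plate controls were neutral wells for no effect and buffer without enzyme for full effect; nearly all actives have a fitted effect of over 40% in size; top concentration of the series not given in the record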
Target sequence (P25779 123-467 limits assumed): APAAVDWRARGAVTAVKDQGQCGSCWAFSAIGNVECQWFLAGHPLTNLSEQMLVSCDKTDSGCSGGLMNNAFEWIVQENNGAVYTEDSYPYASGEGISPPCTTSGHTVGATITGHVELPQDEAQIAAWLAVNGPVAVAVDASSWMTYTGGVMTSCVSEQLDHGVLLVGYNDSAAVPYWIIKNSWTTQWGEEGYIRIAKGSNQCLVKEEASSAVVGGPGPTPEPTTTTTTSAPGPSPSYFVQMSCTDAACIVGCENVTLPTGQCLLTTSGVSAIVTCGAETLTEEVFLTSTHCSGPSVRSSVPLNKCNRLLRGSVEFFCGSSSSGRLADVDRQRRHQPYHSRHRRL
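Detergent-containing arm of a paired screen for aggregation-based inhibition: 0.01% Triton X-100 present. Cruzain at 1.5 nM cleaved 2 uM Z-FR-AMC at pH 5.5 with 5 mM DTT; AMC fluorescence gain over 60 s measured activity.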
NS1 inh: blocks influenza NS1 protein function; Potency, µM (titrated, usually from 46.1 µM), for inactives: at the highest dose activity, positive = more growth; S. cerevisiae slowed by influenza A NS1, growth recovery by OD600; 270,000 tested, 0.4% active; note: actives are rising curves; nearly all actives have a fitted effect of over 50% in size
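A cell-based growth assay was used: compounds that relieve NS1-induced slow growth of budding yeast raise OD600. Assay medium was yeast nitrogen base with ammonium sulphate and -URA supplement, pH 6.0, with 2% galactose.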
MARV entry inh: inhibitors of Marburg virus binding or cell entry | Marburg virus pseudotyped entry inhibition, cell reporter; control for the full effect not named in the record; about a third of the inactives were read at about 46 µM | Potency, µM (titrated, usually from 37.8 µM), without a hit: at the top dose activity change, negative = inhibition, actives largely listed as inhibitors | 300,000 tested, 1.8% active; active = well fitted inhibition curve with a large enough effect; inconclusive = small, poorly fitted or top-dose-only effect, or effect the other way; inactive = flat fitted curve, though single readings scatter; tested in HEK293 cells; about a fifth of its hits are not listed in these tables; note: % is set by controls: 0 for no effect and ±100 for the full control effect; luciferase read-out
Lassa entry inh: inhibitors of Lassa virus binding or cell entry | Lassa virus pseudotype entry inhibition, cell reporter; control for the full effect not named in the record | Potency, µM (series often up to 37.9 µM), for inactives: top-dose activity change, negative = inhibition, hits mostly inhibitors | 300,000 tested, 1.2% active; active means well fitted inhibition curve with a large enough effect; inconclusive means small, poorly fitted or top-dose-only effect, or effect the other way; inactive means flat fitted curve, though single readings scatter; tested in HEK293 cells; note: % is set by controls: 0 for no effect and ±100 for the full control effect; nearly all actives have a fitted effect of over 50% in size; luciferase read-out
SARS PLpro yeast: SARS-CoV PLP inhibition in yeast | Potency, µM (doses to about 32.9 µM), without a hit: at the top dose activity, positive = growth rescue | S. cerevisiae expressing SARS-CoV PLpro, growth rescue; control for the full effect not named in the record | 330,000 tested, 0.19% active; note: 0% is about no effect; nearly all actives have a fitted effect of over 55% in size; growth read by luminescence after 48 h
RE007 growth inh: less growth of the S. pombe RE007 Vpr strain; S. pombe RE007 Vpr strain, BacTiter-Glo ATP luminescence, 24 h; control for the full effect not named in the record; 360,000 tested, 0.21% active; Potency, µM (top dose mostly 92.2 µM), for the others: at the highest dose activity change, negative = less growth; active = well fitted falling curve with a large enough effect; inconclusive = small, poorly fitted or top-dose-only effect; inactive = no such curve, though single readings can be large or run the other way;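 note: % is set by controls: 0 for no effect and ±100 for the full control effect; nearly all actives have a fitted effect of over 50% in size; the assay follows cell death caused by Vpr and the record does not say whether a fall means rescue or toxicity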
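Fission yeast RE007 carrying one integrated HIV-1 vpr copy, seeded at OD 0.01 in PMG+AL medium with 23 nL pinned compound. Grown 24 h at 30 degrees; viability read by BacTiter-Glo luminescence after 5 min.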
Cruzain noTriton: blocks cruzain activity in detergent-free assay | 200,000 tested, 2.3% active | purified cruzain, Z-FR-AMC fluorescence, no detergent | Potency, µM, inactives show max response, negative = inhibition, usual class: inhibitors | AID 1476; active = well fitted curve in the direction sought with a large enough effect; inconclusive = small, poorly fitted or top-dose-only effect, or another doubt; inactive = no such curve, though single readings can be large; an effect the other way counts as inactive or inconclusive;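 note: plate controls were enzyme without inhibitor for no effect and buffer without enzyme for full effect; nearly all actives have a fitted effect of over 40% in size; top concentration of the series not given in the record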
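Detergent-free condition (0.00005% Triton X-100) in acetate buffer pH 5.5 with DTT. 1.5 nM enzyme and compound were pre-mixed 15 min, then 2 uM Z-FR-AMC substrate added; reaction progress from fluorescence change between first and third reads (60 s).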
2A StopGo: lowers the luciferase signal of an FMDV 2A StopGo reporter; human cells with a luciferase reporter of 2A StopGo recoding; control for the full effect not named in the record; Potency, µM (titrated, usually from 57.9 µM), inactives show at the top dose signal change, negative = less light; 410,000 tested, 1.2% active; AID 1159524; active = well fitted falling curve with a large enough effect; inconclusive = small, poorly fitted or top-dose-only effect; inactive = no such curve, though single readings can be large or run the other way; tested in HEK293T cells; note: % is set by controls: 0 for no effect and ±100 for the full control effect; nearly all actives have a fitted effect of over 45% in size; luciferase light after 4 h
* = called active by the depositor; & = joins results of further samples; [ ] = remark or other dose. Unless noted, calls come from the whole dose curve; as a rule, active means well fitted rising curve with a large enough effect; inconclusive means small, poorly fitted or top-dose-only effect; inactive means no such curve, though single readings can be large or run the other way. Potency is the fitted concentration of half-maximal effect. Rows are unselected; about 4.5% have a hit in one of these screens.

Screening Cc1ccnc(NC(=O)CCC(=O)N(Cc2ccco2)C(C(=O)NC(C)C)c2ccc(F)cc2)c1 (configuration not stated) returned NS1 inh -4%, MARV entry inh -5%[46.1 µM], Lassa entry inh inconclusive, SARS PLpro yeast 0%, RE007 growth inh -16% and 2A StopGo 6%.
Screening O=C(Cc1ccc([N+](=O)[O-])cc1)Nc1ccc2c(c1)CCC2 returned NS1 inh 12%, MARV entry inh 25%[46.1 µM], SARS PLpro yeast -4%, RE007 growth inh -24% and 2A StopGo 33%[activator].
Screening Cn1c(C(=O)NCc2cccs2)cc2c(=O)n(C)c3ccccc3c21 returned Cruzain Triton -0.4%, NS1 inh -22%, MARV entry inh -2%, SARS PLpro yeast 5%, RE007 growth inh -5%, Cruzain noTriton 4% and 2A StopGo -18%.
CCCS(=O)(=O)N1CCC(C(=O)NCCCN(CC)c2cccc(C)c2)CC1 was read as Cruzain Triton 2.7%, NS1 inh -6%, MARV entry inh -7%, Lassa entry inh -11%, SARS PLpro yeast -1%, RE007 growth inh 5%, Cruzain noTriton 3% and 2A StopGo -16%.
Screening CCOc1ccc(Cc2nnc(N)s2)cc1OCC returned Cruzain Triton -0.6%, NS1 inh 4%, MARV entry inh -23%, Lassa entry inh -3%, SARS PLpro yeast 1%, RE007 growth inh 1%, Cruzain noTriton -4% and 2A StopGo -21%.
For COc1ccc(-n2cnnc2SCc2ncc(-c3ccccc3)o2)cc1 the results were Cruzain Triton 3.6%, NS1 inh -4%, MARV entry inh 4%, Lassa entry inh inconclusive, SARS PLpro yeast -2%, RE007 growth inh -2%, Cruzain noTriton 2% and 2A StopGo inconclusive.
`COc1ccccc1NC(=O)N1CCC(c2nnc(SCC(N)=O)n2C)CC1` gave Cruzain Triton 7.4%, NS1 inh 4%, MARV entry inh -1%, Lassa entry inh 0%, SARS PLpro yeast 5%, RE007 growth inh 1%, Cruzain noTriton -3% and 2A StopGo 10%.
`CCc1noc(C)c1C(=O)Nc1nc(-c2ccc(NC(C)=O)cc2)cs1` gave MARV entry inh inconclusive, Lassa entry inh inconclusive, SARS PLpro yeast -3%, RE007 growth inh 1% and 2A StopGo 22µM*.
Screening COc1ccc(N(C(=O)Cn2nnc3ccccc32)C(C(=O)NCc2ccco2)c2ccc(C)o2)cc1 (configuration not stated) returned Cruzain Triton -3.4%, NS1 inh -32%, MARV entry inh -21%[46.1 µM], Lassa entry inh inconclusive, SARS PLpro yeast 4%, RE007 growth inh 2%, Cruzain noTriton -2% and 2A StopGo 4%.
`COc1ccc(-c2nn(-c3ccccc3)cc2/C=N/Nc2ccc(Cl)c(C(=O)O)c2)cc1OC` gave NS1 inh 9%, SARS PLpro yeast -1%, RE007 growth inh -6% and 2A StopGo -6%.
For Cc1ccc(S(=O)(=O)N2CCOCC2)cc1C(=O)Nc1ccccc1F the results were NS1 inh -7%, MARV entry inh 4%, Lassa entry inh 14%, SARS PLpro yeast -3%, RE007 growth inh 9% and 2A StopGo -16%.
For COC(=O)c1sc2[nH]c(=S)n(N)c(=O)c2c1C the results were MARV entry inh 4%, Lassa entry inh 24%, SARS PLpro yeast 0%, RE007 growth inh 10% and 2A StopGo -1%.
COc1ccc(-n2c(Cc3cc(=O)[nH]c(=O)[nH]3)nnc2SCC(=O)Nc2cc(C(F)(F)F)ccc2Cl)cc1 was read as MARV entry inh -12%[46.1 µM], Lassa entry inh 27%[46.1 µM], SARS PLpro yeast 4%, RE007 growth inh 16% and 2A StopGo -6%.
Screening CCOc1ccc(CCNC(=O)CN2N=C(c3ccccc3)CCC2=O)cc1OCC returned Cruzain Triton 0.6%, Lassa entry inh 0%[46.1 µM], Cruzain noTriton 27% and 2A StopGo -11%.
`CCOC(=O)c1ccc(N=c2sc(C(=O)OC)cc(=O)n2Cc2ccco2)cc1` gave Cruzain Triton -6.1%, NS1 inh -4%, MARV entry inh inconclusive, Lassa entry inh inconclusive, SARS PLpro yeast -4%, RE007 growth inh -4%, Cruzain noTriton 20% and 2A StopGo 0%.
`CC(C)NP(=O)(NC(C)C)OP(=O)(NC(C)C)NC(C)C` gave Cruzain Triton -2.7%, NS1 inh 6%, MARV entry inh inconclusive, Lassa entry inh inconclusive, RE007 growth inh -7%[18.4 µM], Cruzain noTriton 15% and 2A StopGo -12%.
Screening Cc1cccc(CSc2nc3c(c(=O)[nH]2)C(c2cccc(O)c2)CC(=O)N3)c1 (configuration not stated) returned Cruzain Triton -2.4%, MARV entry inh inconclusive, Lassa entry inh 5%[46.1 µM], Cruzain noTriton 0% and 2A StopGo -12%.
`CCC/C(O)=C1\C(=O)CC(C)(C)CC1=Nc1ccccc1O` gave NS1 inh 0%, MARV entry inh -15%[46.1 µM], Lassa entry inh inconclusive, SARS PLpro yeast -1%, RE007 growth inh 23% and 2A StopGo inconclusive.
For Cc1ccc(NC(=O)CSc2n[nH]c(=O)n2C2CC2)cc1S(=O)(=O)N1CCOCC1 the results were Cruzain Triton -2.7%, NS1 inh 3%, MARV entry inh -24%, Lassa entry inh -5%, SARS PLpro yeast 9%, RE007 growth inh -10%, Cruzain noTriton 23% and 2A StopGo -16%.
For Cc1ccc(OCC(=O)NNC(=S)NC(=O)C2CCCCC2)c(C)c1 the results were NS1 inh -75%, SARS PLpro yeast 25%, RE007 growth inh 20% and 2A StopGo -24%.

Grouped by structure: the compounds so far containing a thiophene ring, fused or not (2)
Screening Cn1c(C(=O)NCc2cccs2)cc2c(=O)n(C)c3ccccc3c21 returned Cruzain Triton -0.4%, NS1 inh -22%, MARV entry inh -2%, SARS PLpro yeast 5%, RE007 growth inh -5%, Cruzain noTriton 4% and 2A StopGo -18%.
For COC(=O)c1sc2[nH]c(=S)n(N)c(=O)c2c1C the results were MARV entry inh 4%, Lassa entry inh 24%, SARS PLpro yeast 0%, RE007 growth inh 10% and 2A StopGo -1%.

Following part
Screening Cc1cc2nnc(SCC(=O)N3CCCCCC3)n2c(N)n1 returned NS1 inh 2%, SARS PLpro yeast 0%, RE007 growth inh 7% and 2A StopGo 24%.
O=C(OCCN1C(=O)c2ccccc2C1=O)Oc1ccccc1 was read as NS1 inh -13%, SARS PLpro yeast 0%, RE007 growth inh -19% and 2A StopGo -14%.
CC(=O)NCC(=O)N(Cc1ccco1)C1(C(=O)NC2CCCC2)CCCCC1 was read as MARV entry inh 0%[46.1 µM], Lassa entry inh 3%, SARS PLpro yeast 4%, RE007 growth inh -6% and 2A StopGo -4%.
`Cc1[nH]n(-c2ccc(Br)cc2)c(=O)c1C=Nc1ccc(S(=O)(=O)Nc2nccs2)cc1` gave Cruzain Triton -8.2%, NS1 inh -9%, MARV entry inh 16%, Lassa entry inh 1%, SARS PLpro yeast -4%, RE007 growth inh -30%, Cruzain noTriton -9% and 2A StopGo 14%.
Screening NCCCC[C@H]1CN=C(N)N1CCC12CC3CC(CC(C3)C1)C2 returned NS1 inh 3%, SARS PLpro yeast -1%, RE007 growth inh 12% and 2A StopGo -12%.
For Cc1ccc(N(CC(O)CN2C(=O)NC(C)(C)C2=O)S(=O)(=O)c2ccc(C)cc2)cc1 (configuration not stated) the results were NS1 inh 3%, MARV entry inh 17%[46.1 µM], Lassa entry inh 27%, SARS PLpro yeast 0%, RE007 growth inh 7% and 2A StopGo -3%.
`Cc1ccc(/C=N/NC(=O)C(C)Oc2cccc3ccccc23)o1` (configuration not stated) gave NS1 inh -10%, SARS PLpro yeast -7%, RE007 growth inh -2% and 2A StopGo -21%.
CSc1nc2ccc(NS(=O)(=O)c3ccc(Br)s3)cc2s1 was read as NS1 inh -55%, SARS PLpro yeast -7%, RE007 growth inh -12% and 2A StopGo 16%.
Screening CCOC(=O)N1CCC(N2Cc3cccc(C(=O)N4CCN(C5CCCCC5)CC4)c3C2=O)CC1 returned Cruzain Triton 2.3%, NS1 inh -9%, MARV entry inh 0%, SARS PLpro yeast 20µM*, RE007 growth inh -9%, Cruzain noTriton -5% and 2A StopGo -26%.
COC(=O)c1ccc(CN2CCc3ccc(NC(=O)c4ccncc4)cc3C2)cc1 was read as NS1 inh 2%, MARV entry inh inconclusive, Lassa entry inh -17%, SARS PLpro yeast -6%, RE007 growth inh -8% and 2A StopGo inconclusive.
Cc1n[nH]c(=S)n(/N=C/c2ccccn2)c1=O was read as Cruzain Triton 6.5%, NS1 inh -3%, MARV entry inh 5%, Lassa entry inh 0%, SARS PLpro yeast 5%, RE007 growth inh 7%, Cruzain noTriton 0% and 2A StopGo -14%.
Screening Cc1ccccc1OCC(=O)NCCC1=CCCCC1 returned Cruzain Triton -5.7%, MARV entry inh inconclusive, Lassa entry inh 15%, SARS PLpro yeast 3%, RE007 growth inh -17%, Cruzain noTriton 8% and 2A StopGo 7%.
Cc1cc(C(=O)Nc2ccccc2[N+](=O)[O-])cs1 was read as NS1 inh 1%, SARS PLpro yeast 1%, RE007 growth inh -17% and 2A StopGo 69%[activator].
For CCOc1ccc(CCNC(=O)c2cnc3c(-c4ccccc4)c(C)nn3c2C)cc1OCC the results were Cruzain Triton -0.1%, Lassa entry inh 23%[46.1 µM], Cruzain noTriton 5% and 2A StopGo -6%.
For O=C(NCCc1ccccc1)c1ccccc1Cl the results were NS1 inh -3%, MARV entry inh 11µM*, Lassa entry inh inconclusive, SARS PLpro yeast -9%, RE007 growth inh -8% and 2A StopGo -54%.
Screening COc1ccc(CN(C#N)c2nc(SC)nc(N(C)C)n2)cc1 returned Cruzain Triton -5.5%, NS1 inh 0%, MARV entry inh 1%&1%, Lassa entry inh inconclusive, SARS PLpro yeast -1%, RE007 growth inh 5%, Cruzain noTriton -9% and 2A StopGo -18%.
`Cc1cc(NC(=O)c2cc(S(=O)(=O)N3CCCCC3)ccc2C)n(-c2ccccn2)n1` gave Cruzain Triton -3.3%, NS1 inh -40%, MARV entry inh 1%, Lassa entry inh -5%, SARS PLpro yeast 5%, RE007 growth inh 7%, Cruzain noTriton 20% and 2A StopGo 0%.
